Ecoli rRNA inh – inhibits bacterial ribosomal RNA function over humanized ribosomes. E. coli WT GFP vs humanized-ribosome RFP mutants, fluorescence, 24 h; stronger effect = lower value; DMSO median 0, no signal -100. GFP signal change (wild-type ribosome), % (concentration not given with the values). actives 1.6% (n = 350,000);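 active means significant combined selectivity score with lowered wild-type GFP, culture density cut under 30%, mutant RFP and density less affected; inactive means any of these conditions unmet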; further: one replicate is shown; some compounds called inactive have numbers as strong as hits
E coli growth – E. coli growth inhibition; Escherichia coli growth, OD600, 23 h; stronger effect = lower value; OD600 absorbance (no concentration beside the values); actives 0.21% (n = 330,000);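 active means OD600 absorbance below the run mean of sample wells minus 3.6 SD, in any replicate, cut at about 0.56 in these data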;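 further: stock transfer was 300 nL into about 60 µL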
FGF22 binding – shifts melting point of recombinant human FGF22; recombinant FGF22 thermal shift, SYPRO orange fluorescence; percent of sucrose octasulfate shift, DMSO zero; calls only at 9.99 µM; actives 1.5% (n = 340,000); AID 651658;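 active means melting point raised past a set limit in the mean and every replicate; three in four hits are not shown here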
Target sequence (Q9HCT0 whole entry, looked up): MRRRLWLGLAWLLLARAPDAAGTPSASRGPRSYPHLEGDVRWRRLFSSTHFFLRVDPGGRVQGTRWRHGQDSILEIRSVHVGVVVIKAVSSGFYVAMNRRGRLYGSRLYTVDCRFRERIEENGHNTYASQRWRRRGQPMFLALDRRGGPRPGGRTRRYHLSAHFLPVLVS
UCH37 DUB inh – inhibitors of human deubiquitinating enzyme UCH37; actives 0.33% (n = 330,000); inhibition, % (concentration not given with the values); AID 588478; Q9Y5K5; purified proteasome/UCH37, Ub-AMC cleavage fluorescence;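 active means mean of two replicates above 20%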;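 further: 0% = compound-free wells with enzyme and 100% = wells lacking proteasome; stock transfer was 100 nL into about 20 µL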
Target sequence (Q9Y5K5 whole entry, looked up): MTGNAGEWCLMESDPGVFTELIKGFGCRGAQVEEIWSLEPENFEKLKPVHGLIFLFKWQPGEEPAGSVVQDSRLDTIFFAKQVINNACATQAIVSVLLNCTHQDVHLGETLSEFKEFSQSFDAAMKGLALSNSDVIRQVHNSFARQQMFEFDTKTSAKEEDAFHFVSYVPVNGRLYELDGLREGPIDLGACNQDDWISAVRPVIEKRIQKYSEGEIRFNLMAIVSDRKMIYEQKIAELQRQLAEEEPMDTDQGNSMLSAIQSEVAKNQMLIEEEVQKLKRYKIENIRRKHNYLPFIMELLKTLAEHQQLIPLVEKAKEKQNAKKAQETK
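Schedule: 30 min plus 25 min, room temperature / Material: human UCH37 within purified proteasomes / Technique: AMC fluorescence intensity at 355/460 nm / Buffer or medium: pH 7.4 Tris-HCl (50 mM) with ovalbumin, ATP-MgCl2, DTT / Controls: wells without proteasome as full block, compound-free enzyme plus substrate as uninhibited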
HNF4A DNA FP – change in binding of human HNF4 alpha to DNA. P41235. AID 1224865. actives 0.3% (n = 360,000). activity change, % at 10 µM. HNF4a-FITC DNA binding, fluorescence polarization, 1 h; in the data active means activity change above about 30%, passing the limit was not always enough;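 further: controls were the assay level and a saturating level of protein; the project sought stronger binding though the title names inhibitors; some compounds called inactive have numbers as strong as hits; positive values seem to mean higher polarization but the record does not say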
ALR inh – inhibitors of human sulfhydryl oxidase ALR | P55789 | purified ALR, DTT oxidation, H2O2 HRP-luminol luminescence | inhibition, % (no concentration beside the values) | actives 3.8% (n = 290,000) | AID 485317;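 active means mean and each replicate at 75% or more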;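 further: stock transfer was 7.5 nL into about 7.5 µL; 0% = neutral wells and 100% = wells with inactivated enzyme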
Target sequence (P55789 whole entry, looked up): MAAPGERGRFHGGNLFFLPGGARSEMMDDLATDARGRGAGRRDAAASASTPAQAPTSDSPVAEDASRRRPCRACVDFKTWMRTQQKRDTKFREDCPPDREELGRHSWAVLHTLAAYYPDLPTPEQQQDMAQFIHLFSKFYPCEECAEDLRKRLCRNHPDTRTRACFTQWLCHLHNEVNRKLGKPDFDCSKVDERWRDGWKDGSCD
B2AR ag – activates human beta-2 adrenergic receptor causing internalization; P07550; Am2.2-beta2AR cells, FAP receptor internalization, flow cytometry; reference of the scale not given here; response, % (no concentration beside the values); actives 0.43% (n = 340,000); AID 504454;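 active means response above a set limit, near 3 SD of response in nonfluorescent compounds, cut at about 42% in these data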;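 further: stock transfer was 100 nL into about 11 µL; a reference agonist was the positive control; negative values mostly stem from fluorescent compounds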
Ecoli rRNA inh OD600 – recorded beside Ecoli rRNA inh, whose call it bears; OD600 change, %; measured here: OD600 growth;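 optical density of the mix in the first replicate; 0 = DMSO median and -100 = no signal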
Ecoli rRNA inh RFP – also measured in Ecoli rRNA inh; calls as there; RFP signal change, %; measured here: RFP humanized mutant strains;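 first replicate; 0 = DMSO median and -100 = no signal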
* = called active by the depositor; i = inactive; . = no result given; + = active, no number; & = joins results of further samples. An excerpt; the hit share may differ from the screen's.

SMILES	Ecoli rRNA inh	Ecoli rRNA inh OD600	Ecoli rRNA inh RFP	E coli growth	FGF22 binding	UCH37 DUB inh	HNF4A DNA FP	ALR inh	B2AR ag
CC(CCc1ccccc1)NC(=O)CNC(=O)N1CC(=O)Nc2ccccc21 (configuration not stated)	4	6	0.4	0.6	i	0.6	-3.1	0	0
O=C(COC(=O)c1cccnc1)Nc1cccc2ccccc12	3	14	-1.4	0.66	i	1.6	1.6	-8	11
CC1CCCC(NC(=O)COC(=O)c2ccccc2NC(=O)c2ccco2)C1C (configuration not stated)	.	.	.	0.66	.	-96	4.0	-1	3
CCC1(C)Cc2c(sc3[nH]c(=S)n(Cc4ccccc4)c(=O)c23)CO1 (configuration not stated)	.	.	.	0.77	.	1.1	1.3	36	1
O=C(c1ccccc1)C1CN(Cc2ccccc2)CCC1(O)c1ccccc1 (configuration not stated)	-18*	9.5*	-3.8*	0.67	i	1.3	-0.6	4	3
CCOC(=O)C1CCCN(C(=O)c2cccs2)C1 (configuration not stated)	.	.	.	0.7	.	-0.9	-0.2	.	26
OCC1(CCOc2ccccc2)CCN(Cc2ccccc2C(F)(F)F)CC1	-2	-6	-0.1	0.67	i	1.5	-0.5	.	-15
CCOC(=O)c1c(C)nc2c(C)cccn12	.	.	.	0.75	.	1.9	-1.2	-5	-10
O=C(N/N=C/c1ccc(Cl)cc1)c1ccc2nc[nH]c2c1	-4	9	-1.6	.	+	.	3.3	.	.
COc1ccc(-c2cc(C(F)(F)F)nc(SCC(=O)NCc3ccco3)n2)cc1OC	.	.	.	0.68	.	-44	-0.4	0	-14
CN(C)C=NC(=O)c1cc(C(=O)c2ccc(C(C)(C)C)cc2)c[nH]1	20	10	-0.1	0.66	i	3.8	3.1	0	18
Cc1cc(C(=O)NC2CCCCC2)c2cc(F)ccc2n1	.	.	.	0.7	.	-0.1	-0.5	-8	-5
CC(C)NC(=S)NC(=O)c1ccc(Cl)cc1Cl	.	.	.	0.66	.	3.4	0.3	3	1
CC(C)N(CC#CCC1(O)c2ccccc2-c2ccccc21)CCO	2	11	-6.0	0.7	i	-1.6	0.5	-1	2
O=C1C2C3C=CC(CC3)C2C(=O)N1c1ccccc1 (configuration not stated)	5	0	-1.1	0.68	i	0.5	0.0	-1	-2
O=C(C1CC1)N1CCc2cc(Br)cc(S(=O)(=O)NCCN3CCOCC3)c21	.	.	.	0.71	.	-2.0	-0.5	-15	-2
COc1ccc(NC(=O)N(C)C[C@H]2Oc3ccc(NC(=O)Nc4c(C)noc4C)cc3C(=O)N([C@H](C)CO)C[C@H]2C)cc1	2&0	5&1	-2.4&-4.0	0.77	i	4.1	-0.4	-4	6
CC(C)(C)NC(=O)NC(=O)COC(=O)c1cccc(F)c1	12	3	0.4	0.67	.	0.1	3.1	3	-2
Cc1cc(C)nc(Nc2n[nH]c(-c3ccc(C(C)(C)C)cc3)n2)n1	-14	-12	-8.5	0.64	.	0.5	-1.5	-15	6
CN(c1ccccc1)S(=O)(=O)c1ccc(C(=O)NCC(c2ccco2)N2CCCCC2)cc1 (configuration not stated)	.	.	.	0.69	i	0.9	3.9	.	2
O=C1C=C(N2CCCCCC2)C(=O)N1c1ccc(Cl)cc1	-16	-15	1.9	0.67	i	1.3	1.8	2	-5
COc1ccccc1OCCOc1ccc(/C=C2\C(=N)N3N=C(C)SC3=NC2=O)cc1	3	-9	0.0	0.69	i	3.9	0.4	1	-3
Cc1cc(C)cc(N2C(=O)C=CC2=O)c1	.	.	.	0.61	i	0.7	-1.8	.	16
CC(C)C(OC(=O)c1nsc(Cl)c1Cl)C(=O)NC(C)(C)C (configuration not stated)	7	11	-4.1	0.69	i	2.3	-2.6	1	-4
O=C(NCc1ccccc1Cl)C1CC(=O)N(Cc2ccccc2)C1 (configuration not stated)	-1	0	-0.9	0.73	i	-0.4	2.5	.	8
Cn1c(=O)c2c(ncn2CC(=O)Nc2nc(-c3ccccc3Cl)cs2)n(C)c1=O	.	.	.	0.73	.	3.7	0.6	-16	2
Cc1ccc([C@H]2C[C@@H](O)[C@H](n3cc(COC(=O)c4ccccc4)nn3)CN2C(=O)C2CCCCC2)cc1	-23	-37	3.5	.	i	.	0.4	.	.
Cc1ccc(S(=O)(=O)c2nc(Cc3ccccc3)oc2N2CCOCC2)cc1	0	12	-2.1	.	i	.	-1.1	60	10
CCOC(=O)c1c(NC(=O)c2cccnc2)sc(C)c1C	5	3	2.5	0.69	.	-3.8	1.1	-3	-19
Cc1cc(-c2ccccc2)nc(Oc2ccc(C(C)(C)C)cc2)c1S(C)(=O)=O	.	.	.	0.78	.	0.8	4.1	-19	10
Cc1occc1-c1nnc(SCC(=O)O)n1-c1ccccc1	3	3	3.5	0.65	i	2.6	5.0	9	-3
Nc1cc(=O)[nH]c(SCC(=O)N2CCCc3ccccc32)n1	.	.	.	0.65	.	0.2	-2.7	10	5
CCN1CCN(C(CNS(=O)(=O)c2ccc(OC)cc2)c2cccnc2)CC1 (configuration not stated)	0	8	0.9	0.76	i	4.7	3.0	-28	5
Cc1cccc(-n2ncc3c2CCCC3NC(=O)CCN2Cc3ccccc3C2=O)c1C (configuration not stated)	-6	-4	-1.9	0.71	i	0.5	1.6	-13	-3
O=C(CN1C(=O)S/C(=C\c2ccccc2F)C1=O)Nc1ccccc1O	-23	-36	-1.3	0.64	i	1.1	2.6	45	1
Cc1ccc(CNC(=O)c2ccc(N3CCC4(CC3)CC(c3ccccc3)=NO4)c(NC(=O)c3ccco3)c2)cc1	7	9	-4.7	0.75	i	1.7	-0.8	5	15
Cc1ccc(C2=CC(c3ccccc3)n3ncnc3N2)cc1 (configuration not stated)	-25	-27	-6.6	.	i	.	-8.6	.	-1
Cc1cc(O)ccc1Nc1nc(-c2sc(N)nc2C)cs1	.	.	.	0.72	.	6.8	12	85*	7
CC(=O)N1CCc2cc(S(=O)(=O)NC3CCCc4ccccc43)ccc21 (configuration not stated)	.	.	.	0.69	.	2.9	-0.1	-1	-6
CCOP(=O)(OCC)c1nc(/C=C/c2ccccc2)oc1NCc1ccccc1	.	.	.	0.71	.	i	-1.3	14	-18
O=C(O)CC(Cc1ccc(Cl)cc1)C(=O)Nc1ccc([N+](=O)[O-])cc1 (configuration not stated)	.	.	.	0.69	.	7.2	-1.0	-13	2
Cc1oc(-c2ccccc2)[n+]([O-])c1C	.	.	.	0.68	.	-1.0	6.8	-1	-2
Nc1nc(-c2cccs2)c(NC(=O)c2ccccc2)s1	9	-1	0.1	0.68	i	5.1	4.4	6	4
CSCCC(N=C1NS(=O)(=O)c2ccccc21)C(=O)NCc1ccccc1F (configuration not stated)	-2	9	0.0	0.7	i	2.1	-3.9	0	-1
N/C(=N\OC(=O)CCC1CCCCC1)c1ccccn1	.	.	.	0.72	.	4.1	-1.8	-6	-4
CO/N=C/c1ccc(Sc2ccccc2N)c([N+](=O)[O-])c1	.	.	.	.	.	.	2.9	-5	5
COc1ccc(-c2csc3nc(-c4ccccc4F)oc(=O)c23)cc1OC	.	.	.	0.7	.	-11	0.7	9	16
CC(C)CCNc1cc(=O)n(C)c(=O)n1C	.	.	.	0.68	.	2.9	-0.2	-12	4
O=C(CSc1n[nH]c(-c2cccs2)n1)N1CCCCC1	10	5	2.2	0.71	i	-1.6	3.2	1	-6
COC(=O)[C@@]1(Cc2ccc(F)cc2)[C@H]2c3cc(C(=O)N4CCCC4)n(CCc4ccc(OC)c(Br)c4)c3C[C@H]2CN1C(=O)c1ccccc1	8	-1	18	.	i	.	2.8	.	.
Cc1cccc(NC(=O)CSc2ncnc3nc[nH]c23)c1	.	.	.	0.68	.	1.7	-2.7	90*	-3
CC(C)n1nccc1NS(=O)(=O)c1ccccc1	8	8	1.9	0.66	i	-0.1	0.9	.	5
CC1(c2nc3ccccc3[nH]2)CCC(=O)N1Cc1ccc(F)cc1 (configuration not stated)	2	13	-1.1	.	i	.	5.3	.	.
Cc1nn(Cc2ccccc2Cl)c(C)c1NC(=O)c1ccn(C)n1	.	.	.	0.62	.	1.2	-1.7	-2	3
COC(=O)c1ccc(CO/N=C(\NC(C)=O)c2nonc2NC(C)=O)cc1	.	.	.	0.66	.	0.9	-2.9	.	-2
COc1ccc(C2NN=C(c3ccc(C)cc3)S2)cc1 (configuration not stated)	12	15	2.8	.	i	.	-0.2	-7	8
O=C(NC1CCCCCC1)C1CCC(=O)N(Cc2ccccc2F)C1 (configuration not stated)	3	12	-1.0	0.66	i	-0.3	0.7	-5	-8
Cc1ccc(S(=O)(=O)c2cc(C#N)c(=O)[nH]c2N)cc1	.	.	.	0.7	.	-5.2	10	14	7
O=C(Nc1ccccc1)C1CCN(C(=O)c2ccco2)CC1	11	13	1.1	0.64	i	3.4	-1.8	-8	-4
CCOC(=O)c1c(NC(=O)CSc2nnc(Cc3csc(N)n3)n2C)sc(C)c1C	.	.	.	0.73	.	6.1	2.5	-1	3
Following part:
SMILES	Ecoli rRNA inh	Ecoli rRNA inh OD600	Ecoli rRNA inh RFP	E coli growth	FGF22 binding	UCH37 DUB inh	HNF4A DNA FP	ALR inh	B2AR ag
C=CCn1c(SCC(=O)NCC)nnc1-c1cc2c(s1)CCC(CC)C2 (configuration not stated)	-30	-35	14	0.66	i	5.2	1.0	-1	-17
CN(C)C(=O)c1ccccc1Sc1ccc(Cl)cc1Cl	.	.	.	0.75	.	5.2	-0.9	.	-4
Cc1cc(Cn2nnc3ccccc32)c(O)c(C(C)(C)C)c1	4	-6	-11	.	i	1.2	-4.0	19	2
Cc1cc(C)n2nc(C(=O)N/N=C/c3ccccc3Cl)nc2n1	12	12	-2.5	.	.	.	17	0	-6
Cc1ccc(C)c(N2CCN(C(=O)Cc3ccc(-n4c(=O)[nH]c5ccsc5c4=O)cc3)CC2)c1	.	.	.	0.65	.	3.5	-0.7	-53	7
CCCCNC(=O)N(CC)c1c(N)n(Cc2ccccc2)c(=O)[nH]c1=O	9	1	0.4	0.66	i	0.1	0.5	1	-1
CC(C)(C)c1ccc(CC(=O)N2CCC2(C)C(=O)NCc2cccc3ccccc23)cc1 (configuration not stated)	-3	-3	0.8	.	i	.	-6.0	.	.
COc1ccc(S(N)(=O)=O)cc1C(=O)OCC(=O)Nc1ncc(Cl)c(C)c1Cl	2	7	-1.6	0.7	i	0.8	-1.5	-2	-3
O=C(NCCC(=O)N1CCNC1=O)OCc1ccccc1	.	.	.	0.72	.	3.7	3.0	0	1
CSCCC1NC(=O)C(C(C)=NNC(N)=O)=C1O (configuration not stated)	18	15	3.0	.	i	.	1.5	.	-8
Cc1ccccc1OCc1nnc(SCC(=O)NC2CCCCC2)o1	.	.	.	0.63	i	1.9	-2.0	-1	4
CCNC(=S)NCc1ccc(OC)c(OC)c1	13	2	1.0	0.7	i	2.8	1.5	-11	-6

Entries of single compounds as entered above:
Results for `CSCCC1NC(=O)C(C(C)=NNC(N)=O)=C1O` (configuration not stated) : Ecoli rRNA inh = 18; Ecoli rRNA inh OD600 = 15; Ecoli rRNA inh RFP = 3.0; E coli growth = .; FGF22 binding = i; UCH37 DUB inh = .; HNF4A DNA FP = 1.5; ALR inh = .; B2AR ag = -8
Results for `Cc1cc(Cn2nnc3ccccc32)c(O)c(C(C)(C)C)c1` : Ecoli rRNA inh = 4; Ecoli rRNA inh OD600 = -6; Ecoli rRNA inh RFP = -11; E coli growth = .; FGF22 binding = i; UCH37 DUB inh = 1.2; HNF4A DNA FP = -4.0; ALR inh = 19; B2AR ag = 2

Source: PubChem
